Prx2 Sm inh: Schistosoma mansoni Prx2 inhibition | S. mansoni Prx2 activity coupled to TGR/GSH (TGR is thioredoxin glutathione reductase), NADPH fluorescence loss, qHTS; some inactives read as strong as hits | Potency, µM | hit rate 0.07% among 65,000 | AID 448; active means full or partial inhibition curve with a strong effect at the top dose; inconclusive means weaker partial or single-point curve; inactive means no accepted curve; further: series up to 57 µM; many of its hits are not listed in these tables
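qHTS, coupled TGR/Prx2 format; 15 min compound preincubation at RT; reaction started with H2O2 (2.5 mM aliquot); kinetic NADPH fluorescence decrease, ex 365/em 450 nm.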
LT uptake inh: anthrax lethal toxin internalization inhibition; Cells, anthrax lethal toxin internalization, FRET ratio (460/530); Potency, µM (doses to about 40 µM), inactives show top-dose activity change, negative = inhibition, hits mostly inhibitors; hit rate 0.67% among 70,000; active = well fitted falling ratio curve with the 530 nm signal flat; inconclusive = other ratio curves, or a change in one channel alone; inactive = flat curves in the ratio and both channels; the % refers to the ratio; further: on the % scale 0 is the no-effect control and ±100 the full control effect; nearly all actives have a fitted effect of over 50% in size; tested in ME-180 cells; beta-lactamase reporter
* marks the source's active call; other numbers are inactive results; ? = inconclusive; · = no result given; & = joins results of further samples; [ ] = another dose, or the depositor's remark. Potency means the concentration at half of the fitted maximal effect.

SMILES | Prx2 Sm inh | LT uptake inh
COC(=O)Cn1nc(-c2ccccc2)c2ccccc21 | >57 | ·
O=C1CN2CCN(CC2)CC(=O)Nc2ccc(cc2)S(=O)(=O)c2ccc(cc2)NC(=O)CN2CCN(CC2)CC(=O)Nc2ccc(cc2)S(=O)(=O)c2ccc(cc2)N1 | >57 | -7.4%[8 µM]
Cc1ccc(NS(=O)(=O)c2ccc3c(c2)oc(=O)n3C)cc1F | >57 | -19.4%
CS(=O)(=O)N(CC(=O)N1CCCCCC1)c1ccc2c(c1)OCCO2 | >57 | -3.1%
COc1ccc(C(=O)NCCC(C)C)cc1S(=O)(=O)N1CCOCC1 | >57 | 7.5%
Cc1oc(-c2cccs2)[n+]([O-])c1C | >57 | -1.7%
O=C(NCCc1ccccc1)c1noc2c1CCc1ccccc1-2 | >57 | -10.8%
CCC(=O)Nc1ccc(-c2nn3c(C)nnc3s2)cc1 | >57 | 5.2%
Cc1ccc(S(=O)(=O)NCCn2c(C)cc3ccccc32)cc1 | >57 | -8.8%
CCCCCCn1c(N)c(C(=O)NCCN2CCOCC2)c2nc3ccccc3nc21 | >57 | ?
O=C1NCCCc2nc(Oc3ccccc3)sc21 | >57 | -2.0%
O=C1C[C@H]2OCC=C3CN4CC[C@@]5(C(=O)O)[C@H](N1)[C@H]2[C@H]3C[C@H]45 | >57 | 0.8%[8 µM]
Cc1c(NC(=O)CC(O)(C(F)(F)F)C(F)(F)F)c(=O)n(-c2ccccc2)n1C | >57 | -2.9%
Cc1cc(O)c(C(C)(C)C)cc1Sc1cc(C(C)(C)C)c(O)cc1C | · | ?
c1ccc(CCCN2CCN(CCOC(c3ccccc3)c3ccccc3)CC2)cc1 | >57&>57 | 25.1µM*
O=C(O)c1ccc(COc2ccc(CO)cc2Cl)cc1 | >57 | ·
CC(=O)Nc1ccc(S(=O)(=O)Nc2cccc(N(C)S(C)(=O)=O)c2)cc1 | >57 | ·
CC(C(=O)OCn1nnc2ccccc2c1=O)N1C(=O)c2ccccc2C1=O (configuration not stated) | >57 | 7.3%
COCNc1nc(OCC#N)nc(N(C)C)n1 | >57 | -7.4%
Cc1cc(SCC(=O)NC(=O)NCc2ccco2)nc2c(C)cccc12 | >57 | -26.0%
N#Cc1nc(-c2ccco2)oc1N1CCC(C(N)=O)CC1 | >57 | 7.8%
COc1cccc(N(CC(=O)NC(C)c2ccccc2)S(C)(=O)=O)c1 (configuration not stated) | >57 | 0.4%
COc1ccc(OC)c(NS(=O)(=O)Cc2ccccc2)c1 | >57 | 0.2%
Cc1cc(C)c2nc3c(c(C(=O)O)c2c1)CCC3 | >57 | 6.6%
CN(CC(=O)N1CC=C(c2ccccc2)CC1)S(=O)(=O)c1cnc[nH]1 | >57 | -4.0%
COc1ccc(NS(=O)(=O)c2ccc(N)c(C(=O)O)c2)cc1 | >57 | -4.6%
COc1ccccc1-c1cc(C(F)(F)F)nc(N2CCN(c3ccc(F)cc3)CC2)n1 | >57 | -9.8%
COc1ccc(N2C(=O)[C@@H]3Cc4ccccc4CN3C2=O)cc1 | >57 | -2.6%
O=C(OCn1nnc2ccccc2c1=O)C1COc2ccccc2O1 (configuration not stated) | >57 | -0.5%
COc1ccc(C2N=C(N)N=C(N)N2c2ccccc2)cc1OC (configuration not stated) | >57 | -1.8%
N#CC1=C(N)OC2=C(C(=O)CCC2)C1c1ccc(OC(=O)N2CCOCC2)cc1 (configuration not stated) | >57 | 12.7%
CCOc1ccc(C(=O)Nn2cnnc2)cc1 | · | 2.7%
Cc1nnc(NC(=O)CSc2nnc(CNC(=O)c3ccccc3)n2-c2ccccc2)s1 | >57 | 11.8%
CCC(CC)C(=O)NCCc1ccc(S(N)(=O)=O)cc1 | >57 | -15.0%
CCC(Sc1ccc(C(=O)O)cc1)C(=O)O (configuration not stated) | >57 | 0.4%
CCCC(=O)Nc1ccc(OC[C@@H](O)CNC(C)C)c(C(C)=O)c1 | >57 | -7.7%[3.58 µM]
CCCC(=O)Nc1cc(C)c2c(=O)oc3ccccc3c2n1 | >57 | 3.2%
CCC(C)NC(=O)CC(c1ccc(OC)cc1)n1cccc1 (configuration not stated) | >57 | 6.7%
CCC[N+](=O)[O-] | · | 0.6%
Cc1noc(NS(=O)(=O)c2ccc(NC(=O)CSc3nc4c(cc3C#N)CCCC4)cc2)c1C | >57 | 2.1%
O=C1NC(c2ccccc2)C(C(=O)c2cccs2)=C1O (configuration not stated) | >57 | 11.3%
Cc1cc(C)c2[nH]c(=O)c(CN(C(=O)C3CCCO3)C3CCCC3)cc2c1 (configuration not stated) | >57 | -10.5%
CCOc1cc(CNCC2CCCO2)cc(Br)c1OCC(N)=O (configuration not stated) | >57 | -1.6%
Cc1ccccc1-c1nnc(SCc2ccc(F)cc2)o1 | >57 | ?
O=C(c1ccccc1)N1CCN(c2ccc(NCc3ccc4c(c3)OCO4)cc2)CC1 | >57 | ?
Cc1ccc(C)c(Cn2c(=O)n(CCCC(=O)NCc3ccco3)c(=O)c3ccccc32)c1 | >57 | -2.7%
O=c1oc2ccccc2n1Cn1c(=O)oc2ccccc21 | >57 | -11.4%
CCOC(=O)CN1CC23C=CC(O2)C(C(=O)NCc2cccs2)C3C1=O (configuration not stated) | >57 | 15.3%
CCOC(=O)Cn1c(C(F)(F)F)nc2nc(Cl)c(Cl)nc21 | >57 | -2.3%[8 µM]
CC1(C)CC(OC(=O)c2ccco2)CC(C)(C)N1O | >57 | 3.5%
O=C(c1ccccc1)N1CCN(CC#CC2(O)CCCCC2)CC1 | >57 | -7.0%
COc1ccccc1N1CCN(CC(=O)c2c(C)[nH]c3ccccc23)CC1 | >57 | -17.7%
CC1(C)CC(=O)C2=C(C1)Nc1ccccc1N=C2 | >57 | -21.4%
CC(=O)N1CCC2(CC1)CCN(c1ncccn1)CC2 | >57 | 8.1%
CC1(C)C(=O)OC(c2cccs2)C(C)(C)C1=O (configuration not stated) | ? | -6.2%
CCn1c(=N)c(C(=O)NC)cc2c(=O)n3cccc(C)c3nc21 | · | 17.0%
CCN1CCN(CCNC(=O)CS(=O)(=O)Cc2nc(-c3ccc(C)cc3)oc2C)CC1 | >57 | 7.0%
COc1ccc(C2CC(c3c(O)cc(C)oc3=O)=NCCS2)c(OC)c1 (configuration not stated) | · | ?
COc1ccc(C2c3c(oc4ccc(C)cc4c3=O)C(=O)N2c2cc(C)ccn2)cc1OC (configuration not stated) | >57 | 5.2%
CCOC(=O)C1C(=O)NC(N2CCCCC2)=NC1C(C)C (configuration not stated) | >57 | 5.7%

Other entries follow.
SMILES | Prx2 Sm inh | LT uptake inh
CN=C1SC(CC(=O)Nc2ccccc2F)C(=O)N1C (configuration not stated) | >57 | 2.2%
COCCn1c(C)cc(C(=O)CSc2nc3ccccc3o2)c1C | >57 | -10.6%
O=C(CSc1ccc2nnc(-c3ccccn3)n2n1)Nc1ccc2c(c1)OCCO2 | >57 | 30.0%
COC(=O)Cc1cc(=O)[nH]c(/N=C(/NC(=O)c2ccccc2)Nc2ccccc2C)n1 | >57 | 1.5%
CCC(=O)Nc1ccc(S(=O)(=O)Nc2cccc(C)c2)cc1OC | >57 | 3.4%
Fc1cccc(-n2c(-c3ccco3)nc3nc4ccccc4nc32)c1 | >57 | ·
COc1ccc(/C(O)=C2\C(=O)C(=O)N(CCN(C)C)C2c2cc(OC)c(OC)c(OC)c2)c(C)c1 (configuration not stated) | >57 | -1.8%
COc1cc2c(cc1OC)C(COc1ccc(F)cc1)N(C(=O)c1ccco1)CC2 (configuration not stated) | >57 | ·
O=C(Nc1ccccc1)N1CCN(Cc2ccc3c(c2)OCO3)CC1 | >57 | 6.8%
CCOC(=O)CSc1nnc(CNC(=O)c2ccc(OC)cc2)n1C1CCCCC1 | ? | 14.7%
Cc1cc(C(=O)OCC(=O)N2c3ccccc3CC2C)c(C)o1 (configuration not stated) | >57 | -9.6%
O=C(c1cc2cc(Cl)ccc2oc1=O)N1CCCC1 | >57 | -3.1%
NC(=O)c1c(NC(=O)CSc2nnc(Cc3ccccc3)n2Cc2ccco2)sc2c1CCC2 | ? | ?
COc1cc2[nH]c(=O)n(CCCC(=O)N3CC=C(c4ccccc4)CC3)c(=O)c2cc1OC | >57 | 8.3%
CC(=O)NC(CCS(C)(=O)=O)C(=O)Nc1c(F)cccc1F (configuration not stated) | >57 | -1.7%
COc1ccc(-c2noc(CCC(=O)Nc3cccnc3)n2)cc1OC | >57 | 6.3%
CCOc1ccc(N(CC(=O)NCc2ccccc2)S(=O)(=O)c2c(C)noc2C)cc1 | >57 | -13.7%
COc1ccc(C(=O)Nn2c(C)ccc2C)cc1OC | >57 | -0.6%
Cc1ccc(C(C)NC(=O)c2c(C)noc2C)cc1C (configuration not stated) | >57 | -6.4%
CCOc1ccc(CN2C(=O)c3ccccc3C2C(=O)NCc2cccnc2)cc1 (configuration not stated) | · | 11.1%

Six of these compounds in another layout.
Results follow in this order: Prx2 Sm inh	LT uptake inh
CN=C1SC(CC(=O)Nc2ccccc2F)C(=O)N1C (configuration not stated)
    >57	2.2%
COCCn1c(C)cc(C(=O)CSc2nc3ccccc3o2)c1C
    >57	-10.6%
O=C(CSc1ccc2nnc(-c3ccccn3)n2n1)Nc1ccc2c(c1)OCCO2
    >57	30.0%
COC(=O)Cc1cc(=O)[nH]c(/N=C(/NC(=O)c2ccccc2)Nc2ccccc2C)n1
    >57	1.5%
CCC(=O)Nc1ccc(S(=O)(=O)Nc2cccc(C)c2)cc1OC
    >57	3.4%
Fc1cccc(-n2c(-c3ccco3)nc3nc4ccccc4nc32)c1
    >57	·

Following part.
SMILES | Prx2 Sm inh | LT uptake inh
O=C1Nc2ccccc2C(O)(C(=O)NCc2ccco2)N1c1ccc(Cl)c(Cl)c1 (configuration not stated) | >57 | 7.94µM*
COc1ccc2c(c1)CCCC21NC(=O)NC1=O (configuration not stated) | >57 | 3.7%
CCCc1c(C)c2ccccc2[nH]c1=O | >57 | 1.5%
COC(=O)CSc1nnc(-c2ccoc2C)n1-c1ccc(C)cc1 | >57 | -16.9%
COc1ccc(-n2c(=O)c(-c3ccccc3)nc3cnc(N4CCNCC4)nc32)cc1 | >57 | ?
COC(=O)c1cn(NC(=O)C2COc3ccccc3O2)c(=O)c2ccccc12 (configuration not stated) | >57 | 0.1%
FC(F)(F)c1ccccc1-c1nc(NCCN2CCOCC2)c2ccccc2n1 | >57 | 7.9%
O=C(c1ccco1)N1CCC(c2nc(-c3ccc(F)cc3)no2)CC1 | >57 | -6.5%
CNC(=O)c1cc2cc(OC)ccc2oc1=N | >57 | 14.0%
CNC(=O)c1cc2cccc(OC)c2oc1=O | >57 | 3.5%
CC(Sc1nc(NCc2ccccc2)nc(N2CCOCC2)n1)C(=O)Nc1ccccc1 (configuration not stated) | >57 | 2.9%
COc1ccc2cc3cc(C(=O)NCc4ccc5c(c4)OCO5)oc3nc2c1 | >57 | 8.9%
CC1(C)C(C=C(Cl)Cl)C1C(=O)N1CCN(c2ccccc2)CC1 (configuration not stated) | >57 | -20.6%
N#CC1=C(N)Oc2n[nH]c(-c3ccc(F)cc3)c2C1c1ccncc1 (configuration not stated) | >57 | -8.3%
COc1cc2cc(C(c3nnnn3C(C)(C)C)N3CCc4ccccc43)c(=O)[nH]c2cc1OC (configuration not stated) | >57 | -17.5%
CCCc1nnc(NC(=O)CCC(=O)N2CCN(CCOc3ccc(C)cc3)CC2)s1 | >57 | 10.4%
COC(=O)/C=C\c1cc(O)ccc1O | >57 | ?
CC(C)C(=O)NC(=O)C1CCCN1C(=O)/C=C/c1ccccc1 (configuration not stated) | · | -9.5%[8 µM]
CCC(=NCC1CCCO1)c1c(O)n(-c2ccccc2)c(=O)[nH]c1=O (configuration not stated) | >57 | -8.7%
CCOc1ccccc1NC(=O)CN(Cc1ccccc1)S(C)(=O)=O | >57 | 5.7%
O=C(CSc1nc2ccccc2[nH]1)c1ccc2c(c1)OCO2 | >57 | 0.3%
O=C(O)CN1C(=O)CC(Cc2ccc(Cl)cc2)C1=O (configuration not stated) | >57 | -10.1%
C[C@@H](C(=O)NCC1CC1)[C@@H]1C[C@@]1(C)[C@@H](NC(=O)OCc1ccccc1)c1ccccc1 | >57 | 6.5%
O=C(C1CCC1)N1CCc2cc(S(=O)(=O)N3CCCCC3)ccc21 | >57 | ?
COc1ccc2[nH]c(=O)c(CN(Cc3ccccc3)Cc3nnnn3CC3CCCO3)cc2c1 (configuration not stated) | >57 | 2.2%
Cc1ccc(-n2nnnc2SCC(=O)Nc2c(C)n(C)n(-c3ccccc3)c2=O)cc1 | >57 | ?

Among those listed so far, these contain a COOH group.
SMILES | Prx2 Sm inh | LT uptake inh
O=C1C[C@H]2OCC=C3CN4CC[C@@]5(C(=O)O)[C@H](N1)[C@H]2[C@H]3C[C@H]45 | >57 | 0.8%[8 µM]
O=C(O)c1ccc(COc2ccc(CO)cc2Cl)cc1 | >57 | ·
Cc1cc(C)c2nc3c(c(C(=O)O)c2c1)CCC3 | >57 | 6.6%
COc1ccc(NS(=O)(=O)c2ccc(N)c(C(=O)O)c2)cc1 | >57 | -4.6%
CCC(Sc1ccc(C(=O)O)cc1)C(=O)O (configuration not stated) | >57 | 0.4%
O=C(O)CN1C(=O)CC(Cc2ccc(Cl)cc2)C1=O (configuration not stated) | >57 | -10.1%

Screening data deposited in PubChem by National Center for Advancing Translational Sciences (NCATS).

A portion of the library; rates above refer to the full screens.
